# Compound activity as filed in PubChem.
# RGS4 act: RGS4 potentiators or activators, primary screen, cell-based, HEK293 M3R inducible RGS4, calcium flux. carbachol calcium flux Fluo4; active compounds read low. hit rate 0.92% among 310,000. AID 463111, 2010. B-score at 10 µM;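 active = B-score of the integrated calcium signal more than 4 SD below the library mean, with starting fluorescence not abnormally high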;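 note: negative B-score means reduced calcium response which marks RGS4 activation or potentiation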
#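 Also added: carbachol at ECmax as muscarinic agonist stimulus; Assay system: HEK293 cells with stable M3R and inducible RGS4; Timing: overnight RGS4 induction, 30 min dye load 37 °C, 20 min compound RT; Measured by: Fluo4-AM (2 µM) calcium-flux fluorescence, kinetic read.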
# DYRK1A inh: rat Dyrk1A kinase inhibitors, primary screen, biochemical, single point, plate reader | inhibition, % at 12.5 µM | ADP-Glo luminescence, NFATc1 peptide | Dual specificity tyrosine-phosphorylation-regulated kinase 1A (Rattus norvegicus), Q63470 | hit rate 0.43% among 310,000; in the data active = inhibition above about 50%;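 note: plate controls were vehicle with enzyme for no effect and no enzyme for full effect; many of its hits are not listed in these tables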
# PolyA inhibitor: polyadenylation inhibitors in yeast reporter cells, primary screen, luminescence, S. cerevisiae. S. cerevisiae SKY197-pL101 polyadenylation reporter, beta-gal luminescence; efflux-impaired pdr1/pdr3 knockout yeast; score 100 = 6 SD above DMSO. calls only at 12 µM. hit rate 0.02% among 300,000;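 active = lowest replicate activity score at least 50, where 100 means six control SD above control mean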;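 note: yeast exposed to compound for 9 h at 30 °C; higher score means more reporter readthrough which indicates perturbed polyadenylation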
# GSK3B inh: human GSK3beta kinase inhibitors, primary screen, biochemical, cell-free homogeneous, HTS; Glycogen synthase kinase-3 beta (Homo sapiens), P49841; GST-GSK3beta kinase, ADP-Glo luminescence, 60 min; active compounds read low; activity score (negative = inhibition), % at 10 µM; hit rate 0.038% among 300,000; AID 2097, 2009;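 active = more than half of replicate wells score below -50%, meaning over 50% inhibition versus plate controls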;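 note: 0% = median DMSO wells and -100% = median GW8510 positive control wells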
#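 Test system – GST-tagged human GSK3beta kinase, cell-free · Incubation – 60 min enzyme reaction, room temperature · Signal – ADP-Glo luminescence · Also added – peptide substrate and ATP at 25 µM · Controls – DMSO neutral wells and GW8510 at 20 µM as positive · Buffer or medium – Tris/MgCl2 kinase buffer · Measure – Luminescence-derived activity versus plate DMSO and GW8510 wells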
# KCNK9 inh: KCNK9 potassium channel inhibitors, primary screen, HEK293 cells, thallium flux | Potassium channel subfamily K member 9 (Homo sapiens), Q9NPC2 | FluxOR thallium flux fluorescence; active compounds read low | B-score at 10 µM | hit rate 1.2% among 310,000 | AID 488922, 2010;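 active = ratio B-score over 3 SD below the library mean, with starting fluorescence within 5 SD of its mean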;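 note: negative B-score means less thallium flux so channel inhibition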
# Target sequence (Q9NPC2 whole entry, looked up): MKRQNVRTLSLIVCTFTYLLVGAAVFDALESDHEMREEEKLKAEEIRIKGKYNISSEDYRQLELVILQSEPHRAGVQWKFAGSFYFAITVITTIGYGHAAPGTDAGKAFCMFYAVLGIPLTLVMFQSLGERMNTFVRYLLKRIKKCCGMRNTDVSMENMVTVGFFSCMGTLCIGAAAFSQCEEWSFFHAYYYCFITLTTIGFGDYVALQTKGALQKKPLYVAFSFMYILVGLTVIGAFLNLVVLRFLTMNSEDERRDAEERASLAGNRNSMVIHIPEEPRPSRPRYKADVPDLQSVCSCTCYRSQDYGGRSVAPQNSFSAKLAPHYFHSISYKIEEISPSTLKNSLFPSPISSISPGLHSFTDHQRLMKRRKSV
# KCNK3 inh: human KCNK3 channel inhibitors, primary screen, CHO cells, FluxOR thallium flux, B-score; Potassium channel subfamily K member 3 (Homo sapiens), O14649; FluxOR fluorescence; active compounds read low; B-score at 10 µM; hit rate 0.84% among 340,000; AID 602410, 2012;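 active = B-score under library mean minus 4 SD, starting fluorescence ratio at most library mean plus 5 SD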;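 note: more negative B-score means stronger inhibition of thallium flux through KCNK3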
# GSK3A inh: blockers of GSK3A enzyme activity – biochemical, luminescence, cell-free homogeneous, HTS, primary screen; Glycogen synthase kinase-3 alpha (Homo sapiens), P49840; GSK-3 alpha kinase, ADP-Glo luminescence, 60 min; inhibition, % at 10 µM; hit rate 0.1% among 320,000;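 in the data active = inhibition above about 50%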;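 note: GST-tagged GSK-3 alpha with peptide substrate and 25 µM ATP; 0% = DMSO neutral wells and 100% = GW8510 positive control wells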
# Target sequence (P49840 whole entry, looked up): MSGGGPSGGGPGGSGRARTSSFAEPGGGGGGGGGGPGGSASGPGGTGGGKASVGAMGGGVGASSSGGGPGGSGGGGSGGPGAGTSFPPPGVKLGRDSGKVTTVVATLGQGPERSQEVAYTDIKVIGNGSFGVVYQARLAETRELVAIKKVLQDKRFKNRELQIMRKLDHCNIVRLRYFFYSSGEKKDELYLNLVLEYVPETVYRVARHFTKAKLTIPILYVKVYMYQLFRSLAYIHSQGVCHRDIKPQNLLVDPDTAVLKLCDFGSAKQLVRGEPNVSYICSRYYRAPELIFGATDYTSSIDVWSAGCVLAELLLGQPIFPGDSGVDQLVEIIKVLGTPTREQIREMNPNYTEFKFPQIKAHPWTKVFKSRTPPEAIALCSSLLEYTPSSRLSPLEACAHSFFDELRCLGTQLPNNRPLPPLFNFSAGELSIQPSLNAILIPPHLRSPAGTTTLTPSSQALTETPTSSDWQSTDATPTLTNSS
# * marks the source's active call; other numbers are inactive results; i = inactive; x = no result given; & = joins results of further samples. This is a subset (hit frequency here may not be typical).
[1] O=C(N/N=C/c1cc(Cl)c(O)c(Cl)c1)c1cc2c(ccc3ccccc32)o1
[2] Cc1cc(Cl)c(S(=O)(=O)N2CCN(c3ccccn3)CC2)cc1OCC(=O)NC1CCCCC1
[3] COCCCC/C(=N\OCCN)c1ccc(C(F)(F)F)cc1
[4] Cc1ccc(Cl)c(OCC(=O)Nc2ccccc2N2CCCCC2)c1
[5] O=C1c2ccccc2C(=O)C2OC12 (stereo not drawn)
[6] CN(C)CCOc1ccc(/C(=C(/CCCl)c2ccccc2)c2ccccc2)cc1
[7] CCCc1nn(C)c2c(=O)[nH]c(-c3cc(S(=O)(=O)N4CCN(C)CC4)ccc3OCC)nc12
[8] COc1cc2nc(N3CCN(C(=O)c4ccco4)CC3)nc(N)c2cc1OC

compound no.	1	2	3	4	5	6	7	8
RGS4 act	i	-8.01*	i	i	i	i	i	i
DYRK1A inh	15.7	x	1.2&-1.3&7.3&19.9&2.0	9.2	x	12.2	6.5	2.7
PolyA inhibitor	i	i	i	i	i	i	i	i
GSK3B inh	-4.0	0.2	1.2&1.5&2.4	0.5	0.8	2.2	1.9	1.2&-1.9
KCNK9 inh	i	i	i	i	i	i	i	i
KCNK3 inh	-11.1*	i	i	-10.4*	x	i	i	i
GSK3A inh	6.2	-1.3	1.6&-0.6&-5.4&2.4	0.3	0.1	x	-4.7	-2.3&2.7

[9] CCOc1ccc(N(C)S(=O)(=O)c2cc(-c3cc(C)no3)ccc2C(C)C)cc1
[10] COC(=O)c1ccc(N(CC(=O)NC2CCCC2)C(=O)c2ccc(C)s2)cc1
[11] Nc1ccn([C@H]2CS[C@@H](CO)O2)c(=O)n1
[12] CCc1nc2ccc(C)cc2c(C(=O)NC2CCCCC2C)c1C (stereo not drawn)
[13] Fc1ccc(NC(=S)Nc2ccccc2OC(F)F)cc1Cl
[14] CC(=O)N1CCN(c2ccc(NC(=S)NC(=O)COc3ccc(C(C)(C)C)cc3)cc2)CC1
[15] COc1ccc2cc(C(C)C(=O)O)ccc2c1 (stereo not drawn)
[16] C#CCN(C)CCCOc1ccc(Cl)cc1Cl

compound no.	9	10	11	12	13	14	15	16
RGS4 act	i	-8.94*	x	i	i	i	x	i
DYRK1A inh	x	-4.9	x	-1.3	0.7	-2.4	10.1	8.2
PolyA inhibitor	i	i	x	i	i	i	x	i
GSK3B inh	-0.5	0.3	x	2.3	1.2	0.3	x	2.7
KCNK9 inh	-9.53*	i	x	i	i	i	x	i
KCNK3 inh	i	i	i	i	i	i	i	i
GSK3A inh	0.8	-1.1	-1.6	-1.7	-0.4	1.3	-8.0	-3.7

[17] COc1cc(-n2nc(C)c3c2OC(N)=C(C#N)C3c2ccccc2)c(Cl)c(Br)c1O (stereo not drawn)
[18] O=C(c1nnsc1S(=O)c1ccc(Cl)cc1)N1CCOCC1 (stereo not drawn)
[19] O=C(c1ccc(OCCN2CCCCC2)cc1)c1c(-c2ccc(O)cc2)sc2cc(O)ccc12
[20] CC(C)Cc1cc(C(=O)Nc2ccccc2)c2ccccc2n1
[21] Cc1ccccc1-c1cc(C(=O)Nc2sc(C)c(C)c2C(N)=O)c2ccccc2n1
[22] S=C(Nc1ccc(Cl)cc1)Nc1ccc2cn[nH]c2c1
[23] Cc1nc(N2CCN(c3ccccn3)CC2)c2c(C)c(C(=O)Nc3ccc(F)c(Cl)c3)sc2n1
[24] COC(=O)c1c(NC(NC(=O)C(C)C)C(Cl)(Cl)Cl)sc2c1CCCC2 (stereo not drawn)

compound no.	17	18	19	20	21	22	23	24
RGS4 act	i	i	i	i	i	i	i	i
DYRK1A inh	18.8	-2.9	14.2&11.1	4.9	31.1	48.4	0.8	x
PolyA inhibitor	i	i	i	i	i	i	i	i
GSK3B inh	0.1	-3.5	5.3	1.8	-2.3	2.7	-0.6	-3.0
KCNK9 inh	i	i	i	i	i	i	-10.3*	i
KCNK3 inh	i	i	i	i	i	i	-12*	i
GSK3A inh	13.3	x	2.3&-3.1	-1.6	-1.0	10.3	-2.0	6.4

[25] CN(C)CCN(Cc1cccs1)c1ccccn1
[26] CCCc1nc(C)c2c(=O)[nH]c(-c3cc(S(=O)(=O)N4CCN(CC)CC4)ccc3OCC)nn12
[27] CCOC(=O)c1cnc2ccc(C)cc2c1Nc1ccc(N2CCOCC2)cc1
[28] Cc1ccc(S(=O)(=O)N2CCN(c3ccnc4cc(Cl)ccc34)CC2)cc1C
[29] CC(NC(=S)NC1CCCCC1)c1ccccc1 (stereo not drawn)
[30] CCn1cc(C(=O)O)c(=O)c2cc(F)c(N3CCN(C)CC3)cc21
[31] Cc1nn(C)cc1N1C(=O)c2cccc3c(N)ccc(c23)C1=O
[32] CC(C)c1ccc(C(C)NC(=O)C2CCCC2)cc1 (stereo not drawn)

compound no.	25	26	27	28	29	30	31	32
RGS4 act	i	i	i	i	i	i	-8.92*	i
DYRK1A inh	-3.1	15.7	60.8*	-3.5	x	-1.3	3.7	-3.2
PolyA inhibitor	i	i	i	i	i	i	i	i
GSK3B inh	0.7	3.2	0.3	0.2	-3.0	-3.1	-1.6	-1.3
KCNK9 inh	i	i	i	i	i	i	i	i
KCNK3 inh	i	i	i	i	i	i	i	i
GSK3A inh	-3.0	-0.3	4.2	1.4	0.2	-1.8	-0.6	-3.2

[33] Nc1ncnc2c1ncn2C1OC(COP(=O)(O)O)C(O)C1O (stereo not drawn)
[34] CCc1ccc2[nH]c(=O)c(C(c3nnnn3Cc3ccco3)N3CCC(C)CC3)cc2c1 (stereo not drawn)
[35] CC1CC(C)(C)Nc2ccc(N=O)cc21 (stereo not drawn)
[36] O=C1C(CCS(=O)c2ccccc2)C(=O)N(c2ccccc2)N1c1ccccc1 (stereo not drawn)
[37] C[C@]12C=CC(=O)C=C1CC[C@@H]1[C@@H]2[C@@H](O)C[C@@]2(C)[C@H]1CC[C@]2(O)C(=O)CO
[38] CN(C)c1ccc2nc3c(=O)[nH]c(=O)nc-3n(CC(O)C(O)C(O)CO)c2c1 (stereo not drawn)
[39] C[C@]12C[C@H](O)[C@H]3[C@@H](CCC4=CC(=O)CC[C@@]43C)[C@@H]1CC[C@@H]2C(=O)CO

compound no.	33	34	35	36	37	38	39
RGS4 act	i	i	i	i	i	-7.94*	i
DYRK1A inh	-8.6	1.0	-1.2	1.4	8.2	1.6	12.2
PolyA inhibitor	i	i	i	i	i	x	i
GSK3B inh	1.3	-3.0	2.7	2.9	0.9	-3.8	1.4
KCNK9 inh	i	i	i	i	i	i	i
KCNK3 inh	i	i	i	i	i	i	i
GSK3A inh	-15.1	-4.0	x	-5.8	-1.5	8.1	2.6

# Sorted by formula weight (low to high): some entries from above
[35] CC1CC(C)(C)Nc2ccc(N=O)cc21 (stereo not drawn)
[32] CC(C)c1ccc(C(C)NC(=O)C2CCCC2)cc1 (stereo not drawn)
[25] CN(C)CCN(Cc1cccs1)c1ccccn1
[29] CC(NC(=S)NC1CCCCC1)c1ccccc1 (stereo not drawn)
[30] CCn1cc(C(=O)O)c(=O)c2cc(F)c(N3CCN(C)CC3)cc21
[39] C[C@]12C[C@H](O)[C@H]3[C@@H](CCC4=CC(=O)CC[C@@]43C)[C@@H]1CC[C@@H]2C(=O)CO
[33] Nc1ncnc2c1ncn2C1OC(COP(=O)(O)O)C(O)C1O (stereo not drawn)
[37] C[C@]12C=CC(=O)C=C1CC[C@@H]1[C@@H]2[C@@H](O)C[C@@]2(C)[C@H]1CC[C@]2(O)C(=O)CO
[27] CCOC(=O)c1cnc2ccc(C)cc2c1Nc1ccc(N2CCOCC2)cc1
[28] Cc1ccc(S(=O)(=O)N2CCN(c3ccnc4cc(Cl)ccc34)CC2)cc1C

compound no.	35	32	25	29	30	39	33	37	27	28
RGS4 act	i	i	i	i	i	i	i	i	i	i
DYRK1A inh	-1.2	-3.2	-3.1	x	-1.3	12.2	-8.6	8.2	60.8*	-3.5
PolyA inhibitor	i	i	i	i	i	i	i	i	i	i
GSK3B inh	2.7	-1.3	0.7	-3.0	-3.1	1.4	1.3	0.9	0.3	0.2
KCNK9 inh	i	i	i	i	i	i	i	i	i	i
KCNK3 inh	i	i	i	i	i	i	i	i	i	i
GSK3A inh	x	-3.2	-3.0	0.2	-1.8	2.6	-15.1	-1.5	4.2	1.4

[34] CCc1ccc2[nH]c(=O)c(C(c3nnnn3Cc3ccco3)N3CCC(C)CC3)cc2c1 (stereo not drawn)
[26] CCCc1nc(C)c2c(=O)[nH]c(-c3cc(S(=O)(=O)N4CCN(CC)CC4)ccc3OCC)nn12

compound no.	34	26
RGS4 act	i	i
DYRK1A inh	1.0	15.7
PolyA inhibitor	i	i
GSK3B inh	-3.0	3.2
KCNK9 inh	i	i
KCNK3 inh	i	i
GSK3A inh	-4.0	-0.3
